High-throughput results deposited in PubChem by several laboratories.
GALR2 ag: agonists of human galanin receptor 2 (GALR2); hit rate 0.48% among 140,000; GALR2-expressing cells, agonist activation read-out; activation, %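 (tested at 5 µM)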; O43603;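 active means above mean plus 3 SD of all compounds, about 5% in these data, not always enough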;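 further: 0% = vehicle buffer wells and 100% = reference agonist at full effect; tested in CHO reporter cells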
HSV augment: increases HSV replication in cells; HSV replication augmentation in cells, fold increase; maximum fold increase; hit rate 0.005% among 220,000;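 active means peak rise of 1.5-fold or more in the series; tested in PC3 cells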;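 further: first round at 10 µM; read as green reporter fluorescence; hits show the peak of a series up to 25 µM; 1 = signal of infected wells without compound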
Insulin prom inh: TRM-6 insulin promoter activity inhibition | TRM-6 cells (human fetal islet line), insulin promoter-eGFP reporter, imaging; reporter expression induced with tamoxifen | inhibition, % at 2 µM | hit rate 0.9% among 130,000 | AID 1273;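 active means inhibition above the mean plus 3 SD, with well images judged a real hit on visual review, cut at about 60% in these data, passing the limit was not always enough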
PKD1 kinase inh: PKD1 (human) kinase inhibition. Q15139. PKD1 kinase fluorescence polarization assay. inhibition, %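 (about 10 µM by stock and volumes)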. hit rate 0.056% among 200,000;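 active means inhibition of 50% or more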;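 further: controls were vehicle for no effect and a reference inhibitor for full effect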
Target sequence (Q15139 whole entry, looked up): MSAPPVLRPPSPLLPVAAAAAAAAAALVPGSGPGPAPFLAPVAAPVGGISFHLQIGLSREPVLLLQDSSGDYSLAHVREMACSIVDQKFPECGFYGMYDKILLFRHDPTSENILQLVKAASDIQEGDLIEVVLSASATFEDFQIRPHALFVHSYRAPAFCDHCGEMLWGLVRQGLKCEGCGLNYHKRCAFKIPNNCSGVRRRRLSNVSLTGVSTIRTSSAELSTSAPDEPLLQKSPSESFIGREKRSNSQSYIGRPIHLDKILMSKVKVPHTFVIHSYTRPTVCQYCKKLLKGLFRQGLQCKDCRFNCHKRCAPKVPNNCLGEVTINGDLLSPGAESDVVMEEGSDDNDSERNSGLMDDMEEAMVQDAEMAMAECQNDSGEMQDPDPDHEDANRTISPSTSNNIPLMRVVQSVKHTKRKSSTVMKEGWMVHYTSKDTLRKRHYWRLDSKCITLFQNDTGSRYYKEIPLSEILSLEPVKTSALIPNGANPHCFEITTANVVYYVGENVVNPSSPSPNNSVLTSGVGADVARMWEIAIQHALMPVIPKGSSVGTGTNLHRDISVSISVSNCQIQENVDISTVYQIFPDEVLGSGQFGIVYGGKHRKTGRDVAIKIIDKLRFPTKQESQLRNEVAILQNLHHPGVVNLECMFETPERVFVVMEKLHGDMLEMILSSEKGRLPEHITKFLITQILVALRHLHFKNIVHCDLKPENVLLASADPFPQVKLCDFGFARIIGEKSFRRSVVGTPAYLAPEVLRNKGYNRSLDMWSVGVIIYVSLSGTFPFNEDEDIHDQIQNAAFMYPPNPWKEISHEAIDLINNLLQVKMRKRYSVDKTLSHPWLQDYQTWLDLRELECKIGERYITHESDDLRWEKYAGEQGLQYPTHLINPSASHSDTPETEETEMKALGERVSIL
RGS16-Gao: modulates binding between human RGS16 and Galphao; hit rate 0.38% among 220,000; binding response (% of control), % at 10 µM; bead-based flow cytometry RGS16-Galphao binding, fluorescence; actives lie on both sides; AID 1441; O15492+P09471;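 active means below 25% or above 175%, edge rows of some plates excepted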;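 further: Galphao activated by GDP with aluminum fluoride before binding; 100% = wells without compound and 0% = beads without RGS; some results beyond the cut were filed as inactive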
Insulin prom inh cell count: second read-out of Insulin prom inh, no call of its own (marks repeat the call); normalized cell count, %; measured here: cell count, toxicity; reference of the scale not given here;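 cells exposed to compound for 48 h; stained nuclei by imaging scaled within each plate; lower means fewer cells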
HSV augment primary fold: also measured in HSV augment; calls as there; fold increase; compound at 10 µM; measured here: primary screen fold increase 10 uM; tested in PC3 cells;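 GFP signal in the first replicate; 1 = infected wells without compound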
An asterisk follows results filed as active; i = inactive; / = not tested or not shown.

SMILES | GALR2 ag | HSV augment | HSV augment primary fold | Insulin prom inh | Insulin prom inh cell count | PKD1 kinase inh | RGS16-Gao
O=P(O)(O)c1ccccc1OCCOCCOCCOCCOc1ccccc1P(=O)(O)O | / | i | 1 | -12.5 | 116.5 | -1.4 | 97.4
O=C(O)c1c2c(nc3ccc(S(=O)(=O)N4CCC(C(=O)NC5CCCCCC5)CC4)cc13)CCCC2 | / | i | 1.05 | 47.1 | 116.4 | 2.6 | 99.5
Cc1nc(NC(C)c2ccccc2)c2c3c(sc2n1)CCC3 (stereo not drawn) | -1.1 | i | 0.75 | 3.1 | 59.0 | 2.6 | 103.0
Cc1ccc(OCCCn2c(CO)nc3ccccc32)cc1 | -0.9 | i | 0.89 | 13.6 | 94.2 | -11.4 | 67.5
COc1cc(C(CCN2CCN(c3ccccc3)CC2)c2c(OC)cc(OC)c3c(C)cc(=O)oc23)cc(OC)c1OC (stereo not drawn) | / | i | 0.9 | / | / | / | 101.9
Cc1ccccc1NC(=O)c1cn2c(nc3ccccc32)c(C#N)c1C | / | i | 0.94 | / | / | / | 100.6
O=C(NCCc1ccccc1)C1(c2ccccc2)CC1(Cl)Cl (stereo not drawn) | -0.7 | i | 1 | -38.2 | 52.4 | -6.3 | 103.0
CC(C)C(=O)N(Cc1ccc2c(c1)OCO2)Cc1ccccn1 | -0.5 | i | 1.04 | -9.1 | 110.1 | -3.8 | 93.8
CCCCC(CC)CNC(=O)c1cccs1 (stereo not drawn) | -4.1 | i | 1.01 | 6.2 | 64.4 | -3.2 | 86.4
CCN=C1S/C(=C\c2ccc(O)c(OCC)c2)C(=O)N1CC | 0.9 | i | 1.04 | 25.0 | 168.2 | 2.2 | 106.1
COc1ccc(CNn2c(-c3ccccc3F)nc3ccccc3c2=O)cc1OC | / | i | 0.92 | -7.1 | 111.4 | -5.6 | 93.6
O=C1CC(N2CCN(c3ccccc3)CC2)C(=O)N1CCc1ccccc1 (stereo not drawn) | -2.0 | i | 0.77 | -11.1 | 132.0 | -5.4 | 104.1
CNC(=S)SCCOc1ccccc1 | / | i | 1 | / | / | / | 113.5
Cn1nnnc1SCC(=O)NCc1ccccc1 | -3.4 | i | 0.88 | / | / | 12.4 | 98.1
Cn1c(NC(=O)c2cccs2)c(-c2cccs2)c(=O)c2ccccc21 | -0.9 | i | 0.84 | 41.2 | 109.4 | -12.5 | 96.9
O=S(=O)(c1ccc(F)cc1)N1CCN(Cc2ccccn2)CC1 | / | i | 0.96 | / | / | -1.7 | 223.5
CCOC(=O)c1c(C)[nH]c(C(=O)Cn2nnc(-c3ccccc3)n2)c1C | 1.5 | i | 1.08 | 3.6 | 43.0 | 0.2 | 104.2
O=C(NCCCN1CCOCC1)C(=O)N/N=C/c1ccccc1O | / | i | 1.01 | / | / | / | 89.2
O=C(NCc1ccco1)C1CCCN1S(=O)(=O)c1ccc2ccccc2c1 (stereo not drawn) | 0.1 | i | 0.75 | 5.7 | 95.3 | -3.3 | 93.8
COC(=O)c1cc(=O)n(Cc2ccc3c(c2)OCO3)c(=Nc2ccc(F)c(Cl)c2)s1 | -2.1 | i | 0.68 | / | / | -13.8 | 114.1
O=C(COc1cccnc1[N+](=O)[O-])Nc1ccc(N2CCOCC2)cc1 | / | i | 0.99 | -29.4 | 117.2 | 0.5 | 98.7
CCOC(=O)C1=C(C)N=C2c3ccccc3C(=O)C2C1c1ccc(C)cc1 (stereo not drawn) | 2.5 | i | 0.57 | 20.8 | 93.9 | -4.5 | 114.3
CCOC(=O)C1CCN(C(=O)CN(c2cccc(C(F)(F)F)c2)S(C)(=O)=O)CC1 | -0.6 | i | 0.957 | 47.1 | 74.7 | -3.3 | 104.4
CN(C)/C=N/C(=S)Nc1ccc(Cl)cc1 | / | i | 0.94 | 27.3 | 107.6 | -4.3 | 109.1
CCOC(O)[C@H]1N[C@@H](c2ccc(Cl)cc2)[C@@H]([N+](=O)[O-])[C@@H]1c1ccccc1 (stereo partly drawn) | -2.4 | i | 0.97 | -6.7 | 99.7 | 3.2 | 102.3
O=C(c1ccc(S(=O)(=O)N2CCCCC2)cc1)N1CCc2ccccc2C1 | / | i | 0.95 | / | / | 1.1 | 104.8
Nn1c(SCC(=O)Nc2ccccc2F)nnc1-c1cccnc1 | -0.3 | i | 0.96 | / | / | -5.7 | 103.9
O=C(Nc1cccc(C(F)(F)F)c1)C12CC3CC(CC(C3)C1)C2 | -0.2 | i | 1.09 | -4.8 | 82.2 | -6.7 | 91.7
COc1ccc(C(=O)CCNc2ccc(C)c(Cl)c2)cc1 | -1.4 | i | 0.88 | / | / | 3.2 | 103.8
COc1ccccc1NC(=O)Cc1coc2cc(C)ccc12 | -2.8 | i | 0.98 | 24.3 | 83.7 | -8.9 | 93.2
Cc1c(C(=O)c2ccc(Br)cc2)c(=O)n(C)c(=O)n1C | / | i | 0.96 | -20.0 | 127.2 | 3.6 | 103.1
O=C(COC(=O)C1CC1)Nc1ccc(Oc2ccccc2)cc1 | -0.4 | i | 0.83 | -35.5 | 51.7 | -7.5 | 101.9
CN(C)S(=O)(=O)c1cccc(NC(=O)Cn2cc(C(F)(F)F)cc(Cl)c2=O)c1 | / | i | 0.94 | -6.7 | 127.5 | 10.7 | 100.4
CN(C)/N=C/c1ccc(/C=N/NC(N)=S)o1 | / | i | 0.98 | / | / | 3.8 | 104.2
O=C(CNc1ccccc1)Nc1ccc(F)cc1 | -1.2 | i | 0.88 | 17.9 | 72.2 | -3.0 | 82.3
Cc1[nH]n(C(N)=S)c(=O)c1N=Nc1ccc(S(=O)(=O)N2CCCC2)cc1 | -1.0 | i | 0.63 | 33.3 | 101.0 | 5.6 | 105.8
CN(C(=O)/C=C/c1ccccc1)C1CCS(=O)(=O)C1 (stereo not drawn) | -0.4 | i | 0.88 | -2.9 | 76.0 | 1.7 | 115.5
Cc1occc1C(=O)NCc1ccccn1 | -1.2 | i | 0.98 | -22.7 | 82.5 | -0.8 | 101.1
Cc1[nH]n(-c2ccc([N+](=O)[O-])cc2)c(=O)c1C=NCCN1CCN(C(=O)c2ccccc2F)CC1 | -1.3 | i | 0.78 | 0.0 | 60.6 | -1.2 | 85.7
COc1cc(NC(=O)COc2cccc(OC)c2)cc(OC)c1 | -1.4 | i | 1.02 | -57.1 | 175.0 | 0.7 | 122.1
CCOC(=O)c1cc(C)sc1/N=C/C1C(=O)CC(C)(C)CC1=O | 0.3 | i | 0.87 | 40.6 | 35.2 | -10.5 | 124.6
Cc1ccc(N(CC(=O)NC(C)(C)C)C(=O)CNC(=O)c2cccs2)cc1C | / | i | 0.92 | / | / | -5.4 | 107.3
O=C(NCC1OCCc2ccccc21)c1ccc(NC(=O)c2ccccc2Cl)cc1 (stereo not drawn) | -1.4 | i | 0.86 | -6.7 | 131.7 | -5.2 | 91.9
CCN(CC)S(=O)(=O)c1ccc(N2CCOCC2)c(NC(=O)c2cccc3ccccc23)c1 | -0.3 | i | 0.89 | / | / | 7.3 | 101.3
COc1ccc(NC(=O)C(CC(C)C)NC(=O)C2CCC(C)CC2)c(OC)c1 (stereo not drawn) | / | i | 0.97 | / | / | -0.5 | 116.2
CCOC(=O)CNC(=O)c1cc(C)oc1C | -3.2 | i | 0.77 | -51.7 | 51.9 | -3.8 | 108.9
C#CCNc1c2c(nc3ncnn13)CC(C)CC2 (stereo not drawn) | / | i | 0.8 | / | / | / | 97.2
CCOC(=O)Cn1nc(C)c(NC(=O)COc2ccc([N+](=O)[O-])c(C)c2)c1C | / | i | 0.85 | -29.4 | 83.7 | -2.1 | 106.7
COCCNC(=O)C1CC(c2cccc(OC)c2)=NO1 (stereo not drawn) | -1.6 | i | 0.84 | -45.5 | 57.7 | 2.2 | 104.0
CCCOc1ccccc1C1CC(=O)Nc2cc3c(cc21)OCO3 (stereo not drawn) | -0.4 | i | 0.58 | i | 7.9 | -8.4 | 100.8
Cc1ccc2oc(-c3ccccc3)nc2c1 | -1.1 | i | 0.997 | 39.3 | 93.4 | -4.4 | 98.7
CCOc1cc(CN2CCN(c3cccc(C(F)(F)F)c3)CC2)ccc1O | 0.2 | i | 0.97 | / | / | -5.0 | 105.5
Cc1ccc(NC(=O)c2ccc(OC(=O)COc3ccc(Cl)c(C)c3)cc2)cc1 | -1.8 | i | 0.97 | 3.9 | 116.4 | -16.2 | 45.4
COc1ccc2cc(C#N)c(N3CCN(Cc4nnnn4CCC(C)C)CC3)nc2c1 | -0.5 | i | 0.913 | -17.9 | 85.5 | -2.4 | 99.4
CC1CN(CC(=O)Nc2ccccc2Sc2ccccc2)CC(C)O1 (stereo not drawn) | 0.1 | i | 1.03 | 35.3 | 98.3 | -3.4 | 97.7
CC(C)OC(=O)CSc1nc2ccccc2s1 | -2.5 | i | 0.947 | 33.3 | 101.8 | -10.7 | 107.2
COc1cc(OC)c(C2=NOC(C(=O)NCc3ccc4c(c3)OCO4)C2)cc1Cl (stereo not drawn) | -2.2 | i | 0.68 | / | / | -3.3 | 101.6
COc1cccc(C2=NOC(C(=O)Nc3cc(C)on3)C2)c1OC (stereo not drawn) | / | i | 0.92 | / | / | / | 94.5
CCN(C(=O)CSc1nnc(-c2cccs2)o1)C1CCS(=O)(=O)C1 (stereo not drawn) | / | i | 1.07 | -133.3 | 97.9 | -2.5 | 98.7
COc1ccc(-c2cc(=O)[nH][nH]2)cc1OC | -2.2 | i | 1.01 | 0.0 | 113.9 | -9.2 | 99.2

By substructure: the entries above containing an NH in an aromatic ring.
SMILES | GALR2 ag | HSV augment | HSV augment primary fold | Insulin prom inh | Insulin prom inh cell count | PKD1 kinase inh | RGS16-Gao
CCOC(=O)c1c(C)[nH]c(C(=O)Cn2nnc(-c3ccccc3)n2)c1C | 1.5 | i | 1.08 | 3.6 | 43.0 | 0.2 | 104.2
Cc1[nH]n(C(N)=S)c(=O)c1N=Nc1ccc(S(=O)(=O)N2CCCC2)cc1 | -1.0 | i | 0.63 | 33.3 | 101.0 | 5.6 | 105.8
Cc1[nH]n(-c2ccc([N+](=O)[O-])cc2)c(=O)c1C=NCCN1CCN(C(=O)c2ccccc2F)CC1 | -1.3 | i | 0.78 | 0.0 | 60.6 | -1.2 | 85.7
COc1ccc(-c2cc(=O)[nH][nH]2)cc1OC | -2.2 | i | 1.01 | 0.0 | 113.9 | -9.2 | 99.2

Following part.
SMILES | GALR2 ag | HSV augment | HSV augment primary fold | Insulin prom inh | Insulin prom inh cell count | PKD1 kinase inh | RGS16-Gao
Clc1cnc(N/N=C/c2ccco2)c(Cl)c1 | -1.3 | i | 1.04 | 31.0 | 107.3 | 10.6 | 125.6
O=C(NCc1ccccc1)N1CCN(c2ccc(Cl)c(Cl)c2)CC1 | -1.4 | i | 1.03 | / | / | 15.2 | 102.9
CCCC(C)C(=O)Nc1nc(C)c(-c2csc(Nc3cc(Cl)ccc3C)n2)s1 (stereo not drawn) | -1.5 | i | 0.63 | / | / | 11.2 | 96.5
O=C(Nc1cc(C(=O)N2CCOCC2)cc(C(=O)N2CCOCC2)c1)c1cc(F)c(F)cc1Cl | -1.3 | i | 0.95 | / | / | -6.6 | 99.5
CCOC(=O)c1c(NC(=O)CSc2nnc(CNc3ccc(OC)cc3)n2C)sc(C)c1C | 2.7 | i | 0.93 | / | / | -1.4 | 98.7
COc1ccc(NC(=O)CCCn2c(=O)c3sccc3n(Cc3ccc(C)cc3C)c2=O)cc1 | -0.4 | i | 0.9 | 13.3 | 134.3 | -5.4 | 109.2
COc1ccc(OC)c(C2C3=C(N=c4s/c(=C\c5cccc(O)c5)c(=O)n42)c2ccccc2CC3)c1 (stereo not drawn) | -1.6 | i | 0.71 | / | / | 0.5 | 107.8
Cn1cc(/C=C/C(=O)N2CCCC(C(=O)c3ccc(C(F)(F)F)cc3)C2)cn1 (stereo not drawn) | / | i | 1.07 | / | / | 16.1 | 92.3
CC1(C)OC(=O)C(=Cc2ccc(-c3ccc(Cl)c(C(=O)O)c3)o2)C(=O)O1 | / | i | 1.11 | / | / | 1.8 | 87.1
COc1ccc(Cl)cc1NC(=S)NNC(=O)c1cccnc1 | / | i | 1.02 | -53.3 | 70.6 | -8.0 | 101.4
C=CCn1c(C)cc(/C([O-])=C(/C(=S)Nc2ccc(OC(F)F)cc2)[n+]2ccc(N(C)C)cc2)c1C | / | i | 1.13 | -29.4 | 78.5 | -1.5 | 99.2
CN1CCN(C(=O)/C(=C/c2cccs2)NC(=O)c2cccs2)CC1 | -0.6 | i | 1.04 | 17.5 | 126.8 | -2.2 | 99.5
CC(=O)NNc1ncnc2ccccc12 | 0.1 | i | 1.2 | / | / | -2.2 | 98.5
O=C(Nc1ccccc1OC(F)F)c1ccc(F)cc1 | -3.1 | i | 0.94 | 27.3 | 108.2 | 0.3 | 103.1
Cn1cccc1Cc1nnc(SCC(=O)Nc2ccccc2F)n1-c1ccc(F)cc1 | -1.4 | i | 1.02 | / | / | -1.6 | 108.0
O=C(OCc1nc2ccc(Cl)cc2n1CCO)c1ccccc1C(=O)c1ccccc1 | -1.6 | i | 1.01 | -35.7 | 52.9 | -22.9 | 100.6

No enrichment for hits. About 1.2% of those tested had a hit in this group.
